LANA-H2A inh – blocks KSHV LANA binding to histone H2A/H2B. Q9QR71. cell-free LANA-H2A/H2B peptide, fluorescence polarization. inhibition, % (concentration not given with the values). 320,000 compounds, 0.6% hits; in the data active = inhibition mostly above about 10%, no sharp cut-off; inactive = mostly below about 6.7%;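 note: stock transfer was 7.5 nL into about 10 µL; 0% = median of vehicle wells and 100% = median of positive control wells; one replicate is shown; the record names a cut of 25% in any replicate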
A1 inh – inhibitors of the anti-apoptotic protein A1, read as caspase activation | MEF A1-2A-BIM cells, Caspase-Glo 3/7 luminescence, 3 h; percent of clofoctol response, vehicle zero | caspase activation, % (no concentration beside the values) | 330,000 compounds, 0.066% hits | AID 2462;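 active = over half of replicate activation scores above 10%, or exactly half above 10 with the replicate mean above 10; inconclusive = replicate mean below 10 yet half the replicates above 10; inactive = over half of replicates below 10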;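 note: wells of about 30 µL received 50 nL stock; many hits fall short of the cut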
Vif A3G – inhibitors of Vif binding to APOBEC3G peptide, primary screen, biochemical, TR-FRET, GST-Vif 1-94, biotin-A3G peptide, dose response retest (AID 1117319). inhibition, %, or IC50 in µM where a hit was titrated. 260,000 compounds, 0.57% hits. TR-FRET GST-Vif / biotin-A3G peptide binding; higher % means a stronger effect; test concentration not given here; strong numbers were not always called active;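 active = above the screen mean plus three standard deviations and confirmed in dose response; inconclusive = results disagree or hit not tested in dose response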;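 note: Vif residues 1-94 fused to GST binding biotinylated APOBEC3G peptide 110-148; 0% = full assay without inhibitor and 100% = GST in place of GST-Vif; retest series ran down from 100 µM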
E coli growth – E. coli growth inhibition; Escherichia coli growth, OD600, 23 h; stronger effect = lower value; OD600 absorbance (no concentration beside the values); 330,000 compounds, 0.21% hits;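 active = OD600 absorbance below the run mean of sample wells minus 3.6 SD, in any replicate, cut at about 0.56 in these data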;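 note: stock transfer was 300 nL into about 60 µL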
HNF4A DNA FP – change in binding of human HNF4 alpha to DNA. HNF4a-FITC DNA binding, fluorescence polarization, 1 h. activity change, % at 10 µM. 360,000 compounds, 0.3% hits. AID 1224865; in the data active = activity change above about 30%, passing the limit was not always enough;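 note: controls were the assay level and a saturating level of protein; the project sought stronger binding though the title names inhibitors; some compounds called inactive have numbers as strong as hits; positive values seem to mean higher polarization but the record does not say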
UCH37 DUB inh – human UCH37 deubiquitinating enzyme inhibition; Q9Y5K5; purified proteasome/UCH37, Ub-AMC cleavage fluorescence; inhibition, % (test concentration not listed); 330,000 compounds, 0.33% hits; AID 588478;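 active = mean of two replicates above 20%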;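 note: 0% = compound-free wells with enzyme and 100% = wells lacking proteasome; stock transfer was 100 nL into about 20 µL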
Target sequence (Q9Y5K5 whole entry, looked up): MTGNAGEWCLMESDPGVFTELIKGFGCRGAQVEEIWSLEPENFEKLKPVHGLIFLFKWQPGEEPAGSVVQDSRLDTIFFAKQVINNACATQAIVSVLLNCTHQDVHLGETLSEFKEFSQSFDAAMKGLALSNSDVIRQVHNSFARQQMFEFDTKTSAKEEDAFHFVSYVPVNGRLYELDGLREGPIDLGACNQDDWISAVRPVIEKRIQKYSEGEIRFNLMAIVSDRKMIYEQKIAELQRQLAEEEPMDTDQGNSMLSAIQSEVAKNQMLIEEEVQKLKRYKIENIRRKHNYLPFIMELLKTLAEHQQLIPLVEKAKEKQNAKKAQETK
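Material: human UCH37 enzyme supplied as purified proteasome complex. Measure: % inhibition of Ub-AMC cleavage fluorescence. Medium: pH 7.4 Tris-HCl (50 mM) with ovalbumin, ATP-MgCl2, DTT. Times: 30 min preincubation with enzyme, 25 min cleavage at room temperature. Detection: AMC fluorescence intensity at 355/460 nm.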
Beta2AR agonist – human beta-2 adrenergic receptor agonism by FAP. P07550. Am2.2-beta2AR cells, FAP receptor internalization, flow cytometry; reference of the scale not given here. response, % (test concentration not listed). 340,000 compounds, 0.43% hits;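 active = response above a set limit, near 3 SD of response in nonfluorescent compounds, cut at about 42% in these data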;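 note: stock transfer was 100 nL into about 11 µL; a reference agonist was the positive control; negative values mostly stem from fluorescent compounds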
Target sequence (P07550 whole entry, looked up): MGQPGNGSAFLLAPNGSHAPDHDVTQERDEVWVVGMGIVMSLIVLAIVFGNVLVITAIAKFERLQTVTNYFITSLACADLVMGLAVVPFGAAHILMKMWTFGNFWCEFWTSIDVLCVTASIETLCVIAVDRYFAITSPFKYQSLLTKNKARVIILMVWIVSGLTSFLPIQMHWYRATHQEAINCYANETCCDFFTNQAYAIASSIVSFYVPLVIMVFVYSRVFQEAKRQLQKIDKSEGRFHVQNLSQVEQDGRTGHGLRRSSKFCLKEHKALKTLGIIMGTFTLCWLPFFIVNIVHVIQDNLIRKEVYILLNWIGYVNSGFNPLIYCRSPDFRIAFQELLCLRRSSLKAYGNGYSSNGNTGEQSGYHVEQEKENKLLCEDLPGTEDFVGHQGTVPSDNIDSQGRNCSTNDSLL
Starred values were filed as active, the others as inactive; ? = inconclusive; . = no result given.

SMILES	LANA-H2A inh	A1 inh	Vif A3G	E coli growth	HNF4A DNA FP	UCH37 DUB inh	Beta2AR agonist
CC(CP(=O)(O)O)NC(=O)Cc1ccccc1 (stereo not drawn)	-3.1	0.3	28.5%	0.677	2.1	3.7	5.0
O=C(Nc1ccc2c(c1)C(=O)NC2=O)c1cc(Cl)ccc1Cl	0.5	0.3	.	0.734	-2.3	-14.5	-13.0
COC(=O)c1cc(C(=O)OCC(=O)NC(=O)NCc2ccccc2)cc([N+](=O)[O-])c1	-2.7	-0.6	9.5%	0.679	-1.3	0.6	-5.0
CCOC(=O)C1C2C=CC3(CN(Cc4ccccc4)C(=O)C13)O2 (stereo not drawn)	0.5	-0.1	-8.1%	0.729	1.4	3.9	6.7
COc1ccc(C(=O)NC(=S)Nc2ccc3oc(=O)ccc3c2)cc1[N+](=O)[O-]	-9.9	0.0	.	0.717	0.8	2.7	4.5
Cc1nc(SCC(=O)c2cc3ccccc3oc2=O)c(C#N)c(-c2ccccc2)c1C(=O)Nc1ccccc1	3.7	0.4	-20.8%	0.73	1.1	-13.6	-6.7
CCC(C)(C)n1nnnc1C(c1cc2cc(C)cc(C)c2[nH]c1=O)N1CCN(C(=O)c2ccco2)CC1 (stereo not drawn)	12.0	0.1	0.2%	0.716	1.8	-12.6	-17.3
COc1cc2c(cc1OC)CN(C1CCCN(Cc3cc(Cl)ccc3O)C1)CC2 (stereo not drawn)	-1.4	0.9	.	0.675	2.5	-5.0	-3.6
COc1ccc(F)cc1S(=O)(=O)n1nc(C)cc1C	3.8	-0.1	-3.5%	.	-4.7	.	6.0
CCc1ccnc(NS(=O)(=O)c2ccc3c(c2)OCCO3)c1	1.9	0.8	-6.6%	0.686	-0.5	5.7	-1.4
COC(=O)C(Cc1c[nH]c2ccccc12)NC(=O)c1ccc2nc[nH]c2c1 (stereo not drawn)	.	.	-0.3%	0.719	7.4	2.8	1.9
COCc1c(C(=O)Nc2ccc3nc(N4CCOCC4)sc3c2)oc2ccccc12	2.7	0.3	.	0.684	3.8	-16.1	21.8
O=S1(=O)N=C2CCCCCN2C(c2ccccc2)N1 (stereo not drawn)	1.2	-0.4	?	0.682	-1.0	2.3	3.4
O=c1nc2n(c3ccc(Br)cc13)CCS2	-0.6	-0.1	5.0%	0.671	2.1	5.0	-13.0
CCn1c(/C=C/c2c(C)n(CC)c3ccccc23)nc2ccccc2c1=O	2.2	-0.3	15.8%	0.722	17.4	-2.7	2.2
COc1ccccc1-n1cc(CN2CCN(C3CCCC3)C(CCO)C2)cn1 (stereo not drawn)	1.3	-0.5	.	0.699	0.8	-2.9	3.1
O=C(CSc1nccc(-c2cccs2)n1)Nc1ccc(Cl)cc1	0.2	-0.5	6.2%	0.655	2.6	1.3	-1.8
CC(=O)c1ccc(NC(=O)C(C)N(C)CC(=O)Nc2cccc(F)c2)cc1 (stereo not drawn)	1.4	0.7	-9.7%	0.718	0.0	-1.1	-6.3
OCC1(Cc2ccc(F)cc2)CCCN(CCc2ccccc2)C1 (stereo not drawn)	-4.7	0.2	.	0.7	-3.5	6.1	-1.5
CCN(CC)S(=O)(=O)c1ccc(N=NC2=C(O)CCCC2=O)cc1	-0.1	0.5	.	0.676	-0.2	3.0	4.3
CCN(C#N)c1nc(NC(C)C)nc(NC(C)C)n1	0.7	-0.2	3.3%	0.705	1.7	0.6	0.2
CC(C)(C)OC(=O)NC(Cc1ccccc1)C(=O)N1CCCC1C(=O)O (stereo not drawn)	-3.1	0.0	6.4%	0.667	1.9	2.0	-3.8
CCNC(=O)CCc1nc(-c2ccc(C)cc2)no1	1.4	-0.4	-1.8%	0.666	0.6	-0.5	11.2
COc1cccc2[nH]c3c(=O)n(CCCN4CCOCC4)cnc3c12	2.7	-0.4	?	0.645	1.2	-294.7	-6.3
CCOc1ccc(-c2nnc(-c3cccs3)o2)cc1OCC	-3.3	-0.4	-8.1%	0.691	-0.3	-36.1	-11.1
O=C(NCC1CC1)[C@@H]1C[C@H]1[C@@H](NP(=O)(c1ccccc1)c1ccccc1)c1ccccc1	1.2	-1.1	.	.	-0.3	0.0	-1.4
CN(C)/C=C(\C=O)c1cccc(Cl)c1	-1.6	0.1	1.8%	0.72	-2.4	4.9	-4.3
CC1C(=O)C(C)C(c2cc(Cl)ccc2O)NC1c1cc(Cl)ccc1O (stereo not drawn)	0.7	0.7	.	0.595	-2.5	2.5	5.4
CCc1nnc(NC(=O)CSc2nc3[nH]ncc3c(=O)[nH]2)s1	-1.3	-1.0	.	0.702	0.0	-0.2	2.6
C=CCOc1ccc(C2=NOC(C(=O)Nc3ccc4c(c3)OCCO4)C2)cc1 (stereo not drawn)	2.3	1.8	.	0.661	-1.2	5.2	-8.1
Cc1c(NC(=O)/C(C#N)=C/c2c(Oc3ccccc3)nc3ccccn3c2=O)c(=O)n(-c2ccccc2)n1C	0.6	-0.7	.	0.697	-2.0	-16.9	-7.3
Cc1ccc2c(c1)C(c1ccncc1)=NNC(c1ccccc1)=N2	-1.4	-2.5	.	0.681	3.4	3.0	-8.0
Cc1nnc(SCC(=O)NNC(=O)COc2ccc(Cl)cc2)n1C	0.4	0.5	.	0.553	2.5	1.3	5.3
Cc1ccc(-c2nnc(SCC(=O)NNC(=O)COc3cccc(C)c3)n2C)cc1	4.0	0.2	-3.3%	0.697	0.8	0.4	6.7
NC(=O)c1sc2nc3c(c(-c4ccccc4)c2c1N)CCC3	-1.9	0.5	-5.5%	0.669	-0.7	-9.2	-1.9
Cc1nc2sccn2c(=O)c1S(=O)(=O)N1CCN(c2ccc(F)cc2)CC1	-2.6	-0.2	.	0.728	1.2	4.1	-8.9
CC(C)C1NC(=S)N(Cc2ccccc2)C1=O (stereo not drawn)	2.9	?	-7.3%	0.715	-1.5	5.3	-1.9
CCCCSc1nnc(-c2ccc(NC(=O)CC)cc2)n1C	1.0	-0.1	14.8%	0.7	-0.6	4.2	-3.4
COc1ccc(S(=O)(=O)Cc2ccc(C(=O)NCCCN3CCc4ccccc4C3)o2)cc1	2.4	0.0	5.7%	0.755	3.6	0.5	-4.5
C[C@]12C=CC(=O)C=C1CC[C@@H]1[C@@H]2[C@@H](O)C[C@@]2(C)[C@H]1CC[C@]2(O)C(=O)COC(=O)CCC(=O)O	-2.3	0.2	0.7%	.	-0.2	-2.3	2.9

Given as comma-separated lines: part of the list above.
molecule,LANA-H2A inh,A1 inh,Vif A3G,E coli growth,HNF4A DNA FP,UCH37 DUB inh,Beta2AR agonist
Cc1c(NC(=O)/C(C#N)=C/c2c(Oc3ccccc3)nc3ccccn3c2=O)c(=O)n(-c2ccccc2)n1C,0.6,-0.7,.,0.697,-2.0,-16.9,-7.3
Cc1ccc2c(c1)C(c1ccncc1)=NNC(c1ccccc1)=N2,-1.4,-2.5,.,0.681,3.4,3.0,-8.0

The list goes on:
SMILES	LANA-H2A inh	A1 inh	Vif A3G	E coli growth	HNF4A DNA FP	UCH37 DUB inh	Beta2AR agonist
O=C(CCn1c(=O)sc2ccccc21)NCCC1=CCCCC1	2.0	0.0	3.6%	0.655	-0.8	5.2	-5.6
Cc1nnc(SCC(=O)N(C)CC(=O)Nc2ccc(F)cc2)n1Cc1ccccc1	1.6	0.8	4.0%	0.75	0.3	-0.6	-3.0
O=Cc1ccc(Oc2nc(Cl)ncc2F)cc1	-2.4	0.7	.	0.707	-0.8	5.5	0.5
CCOCCCNC(=O)C1CCCCN1S(=O)(=O)c1ccc(F)cc1 (stereo not drawn)	0.0	-0.5	5.0%	0.681	3.4	1.6	2.2
COc1ccc(CNS(=O)(=O)c2c(C)[nH]c(C)c2C(=O)N2CCCC2)cc1	6.2	0.9	14.6%	0.687	4.3	1.2	4.0
CC1(C)N=C(/C=N/O)CN1O	-1.7	1.2	0.4%	.	0.6	.	-3.8
Cc1c(Cl)ccc2sc(NC(=O)CN3C(=O)c4ccccc4C3=O)nc12	5.3	.	7.5%	0.815	3.9	0.6	-6.2
O=C(NCc1ccc(F)cc1)c1ccc2c(=O)n3c(nc2c1)CCCCC3	-1.9	0.4	5.4%	0.737	0.1	2.8	-16.4
Cc1ccc(-n2ncc(C(=O)NCC3CCN(C4CCCC4)C3)c2C2CCN(C(=O)OC(C)(C)C)CC2)cc1C (stereo not drawn)	0.7	-0.3	.	0.645	-1.4	-0.1	2.7
O=[N+]([O-])c1cc(-c2nnc(-c3ccccc3)o2)ccc1Oc1ccc(Cl)cc1	2.0	0.3	.	0.692	-1.6	0.9	1.4
Cn1ncc2c1ncn1nc(COc3ccc4ccccc4c3)nc21	-5.6	0.3	-2.7%	0.726	0.8	1.3	-1.6
O=Cc1sc(=O)n(Cc2cccc(C(=O)O)c2)c1Cl	-1.6	-0.7	31.2%	0.63	-0.2	7.6	7.0
Cn1c(OCc2ccco2)nc2c1c(=O)n(Cc1ccc(Cl)c(Cl)c1)c(=O)n2C	-2.1	1.8	-1.6%	0.75	-0.6	-0.2	-4.3
Cn1c2c(c(=O)n(C)c1=O)C(NC(=O)C(C)(C)C)(C(F)(F)F)C(=O)N2 (stereo not drawn)	3.6	1.7	2.4%	0.721	-4.5	1.2	-1.7
CCc1ccc(NC(=O)/C(C#N)=C/c2ccncc2)cc1	1.7	1.8	.	0.686	2.0	5.8	37.2
Cc1cc2nc(-c3ccc[nH]c3=O)n(Cc3ccccc3F)c2cc1C	2.3	0.6	-10.1%	0.703	2.5	-368.3	5.4
COc1ccc(NC(=O)C(c2ccc(C)cc2)N(C)C(=O)CC2NC(=O)NC2=O)cc1 (stereo not drawn)	-5.6	0.5	.	0.675	0.5	6.1	-2.4
O=C1NC(NS(=O)(=O)c2ccccc2)(C(F)(F)F)C(=O)N1c1ccc(F)cc1 (stereo not drawn)	-4.8	0.0	.	0.728	2.9	2.2	13.4
Cc1ccc(N=Nc2ccc(O)c3ncccc23)cc1	-10.2	-1.3	-2.9%	0.718	2.3	2.1	12.8
CC1CCN(S(=O)(=O)c2nnc(NC(=O)COc3ccccc3F)s2)CC1	1.1	-0.5	.	0.786	-1.9	2.3	9.6
Cc1ccc(NC(=O)C(OC(=O)c2cnc(C)cn2)c2ccccc2)c([N+](=O)[O-])c1 (stereo not drawn)	2.3	-0.3	.	0.723	3.7	6.0	-6.5
Cc1c(NC(=O)CCC(=O)N2CCOCC2)c(=O)n(-c2ccccc2)n1C	4.0	-1.3	-9.4%	0.716	-0.5	2.1	-0.5
CCN(CC)S(=O)(=O)c1cccc(C(=O)Nc2cc(C)on2)c1	2.8	-3.4	.	0.663	1.2	5.1	-8.3
COc1ccc(Cl)cc1S(=O)(=O)N1CCN(c2ccc(F)cc2)CC1	1.3	1.3	1.9%	0.709	31.9	1.2	0.7
O=C(/C=C/c1ccccn1)c1cc(Br)ccc1O	2.5	-0.5	6.0%	0.675	-0.7	2.7	3.0
CC1CCCC(C)N1S(=O)(=O)c1ccc(NC(=O)CNC2CCCC2)cc1 (stereo not drawn)	-1.4	0.4	4.0%	0.681	-0.8	1.0	4.2
C=CCn1c(=O)n(C)c2c(=O)n(C)c(=O)n(C)c21	.	.	-3.5%	0.71	0.9	2.8	5.6
CCCCC(c1nnnn1CCOC)N1CCN(Cc2ccccc2)CC1 (stereo not drawn)	1.7	1.6	?	0.755	0.0	5.2	-8.0
Nc1c(-c2ccc3c(c2)OCCO3)oc2ccccc2c1=O	1.4	-6.9	-3.6%	0.655	3.5	-306.4	1.5
C=CCC(C(=O)NC(C)c1ccccc1)C(=O)NC(C)c1ccccc1 (stereo not drawn)	6.4	-0.1	2.8%	0.679	1.4	4.2	3.7
O=C1c2cccc3cccc(c23)C(=O)N1c1ccc2ncccc2c1	-0.5	-0.9	?	0.626	-3.7	4.8	69.5*
COc1ccc(NC(=S)N(CCCN2CCOCC2)Cc2cn(C)c3ccccc23)cc1OC	6.4	1.5	-11.5%	0.681	0.0	3.2	2.4

High-throughput results: PubChem BioAssay, several laboratories
